Biofilm kill mix = clotrimazole potentiators killing C. albicans biofilm, primary screen, 4-compound mixtures; C. albicans biofilm persisters + clotrimazole, fluorescence viability; primary screen in compound mixtures of four per well; inhibition, % at 7.6 µM; 120,000 tested, 0.02% active;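 active means inhibition above 30.3% in the primary screen of four-compound pools, then above 30% when the compound was retested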;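 further: compounds exposed to preformed 24 h biofilms for 48 h; the number belongs to the whole pool; some results filed as inactive read as strong as hits; inactives centre near 12; 0% = biofilm with clotrimazole alone and 100% = kill control; retested singly at about 60 µM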
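Test system: C. albicans biofilms. Buffer or medium: RPMI/MOPS medium, pH 7.0. Timing: 48 h compound exposure at 37 °C. Technique: Alamar Blue fluorescence. Evaluation: percent inhibition of biofilm viability.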
Active calls of the source: *.

Structure | Biofilm kill mix
COc1ccccc1-c1ccc(Nc2cccc(C(F)(F)F)c2)nn1 | -3
CCc1ccc(N2CN=c3s/c(=C\c4ccccc4)c(=O)n3C2)cc1 | 20
O=S(=O)(/C=C/c1ccccc1)NC1CCCCCCC1 | 13
CCCCC(c1nnnn1CC1CCCO1)N1CCN(c2ccccc2)CC1 (configuration not stated) | 20
CCCCOC(=O)CSC1=C(C#N)C(c2cccnc2)C(C(=O)OCC)=C(c2ccccc2)N1 (configuration not stated) | 6
Cc1ccc(-n2nnnc2-c2nc3ccccc3s2)cc1 | 16
Cc1nnsc1C(=O)N/N=C/c1ccc2ccccc2c1O | 15
CC(=O)Nc1ccc(-c2ccnc(-c3ccc(NC(C)=O)cc3)n2)cc1 | 22

Next section, starting with the last 4 of the part before.
Structure | Biofilm kill mix
CCCCOC(=O)CSC1=C(C#N)C(c2cccnc2)C(C(=O)OCC)=C(c2ccccc2)N1 (configuration not stated) | 6
Cc1ccc(-n2nnnc2-c2nc3ccccc3s2)cc1 | 16
Cc1nnsc1C(=O)N/N=C/c1ccc2ccccc2c1O | 15
CC(=O)Nc1ccc(-c2ccnc(-c3ccc(NC(C)=O)cc3)n2)cc1 | 22
NS(=O)(=O)c1ccc(NC(=S)Nc2ccc(F)c(F)c2)cc1 | 12
CC(C)(C)c1cc(-c2ccccc2)no1 | 3
C=CCNC(=O)c1c(Br)cnn1-c1ccc(C)cc1 | -3
COc1cc(Cl)c(C)cc1NC(=O)CSCC#N | 16
CC(C)C(=O)N1CCN(c2ccc([N+](=O)[O-])c(NC(C)c3ccccc3)c2)CC1 (configuration not stated) | 14
COc1ccc2cc(C(=O)C3CCCN(C(=O)c4ccnn4C)C3)ccc2c1 (configuration not stated) | 34
O=C(CN1C(=O)C2CC=CCC2C1=O)Nc1ccc(S(=O)(=O)Nc2nccs2)cc1 (configuration not stated) | 16
Cc1cccc(N2CCN(C(=O)c3cc(=O)[nH]c4ccccc34)CC2)c1C | 14

Continuation.
Structure | Biofilm kill mix
O=C(CCc1ccc(S(=O)(=O)NCCc2ccccc2)cc1)NCc1ccco1 | 10
O=C(Nc1ccccc1)c1ccc(=O)n(Cc2ccc(F)c(F)c2)c1 | -8
CCN(CC)C(=O)c1cn(CCC#N)nc1-c1ccc(F)cc1 | 12
Cc1cc(C)n2nc(C(=O)OCC(=O)c3c[nH]c4ccccc34)nc2n1 | 13
CCOc1ccc2nc(SC3CC(=O)N(c4ccc(OC)cc4OC)C3=O)sc2c1 (configuration not stated) | 17
COc1ccc(NC(=O)c2cccc(OC(=S)N3CCOCC3)c2)cc1 | 31
CCOC(=O)CSc1nc(C)c(Oc2ccc(Cl)cc2Cl)c(=O)[nH]1 | 24
O=C(NC1CCCCC1)C(c1cccnc1)N(C(=O)CCl)c1cccc(Cl)c1 (configuration not stated) | 3

Continuation.
Structure | Biofilm kill mix
Cc1ccc(CSc2n[nH]c(N)n2)cc1 | 9
Cc1cc[n+](-c2[nH]c(=O)sc2/C=N/N=C(\[O-])CCn2c3ccccc3c3ccccc32)cc1 | 16
Cc1ccc(S(=O)(=O)N2CCC(=O)N(C(COCc3cccc(Cl)c3)Cc3ccccc3)CC2)cc1 (configuration not stated) | 7
CCCNC(=O)NC(=O)COc1ccc(-c2ccc(C#N)cc2)cc1 | 10
COC(=O)C(Cc1ccccc1)NC(=O)c1cc(=O)[nH]c2ccccc12 (configuration not stated) | 15
COc1ccc(-c2nn(CC(=O)NCCc3ccccc3)c(=S)n2C)cc1 | 12
CCCCOc1ccc(C(=O)Nc2cc(C)c(OCC(=O)N3CCOCC3)c(C)c2)cc1 | 10
Cc1cc(N(CCO)CCO)ccc1C(c1ccc(N(CCO)CCO)cc1C)c1ccccc1Cl | 18

Additional results follow.
Structure | Biofilm kill mix
COc1ccc(OC(=O)Nc2ccc([N+](=O)[O-])cc2OC)cc1 | 1
COC(=O)c1ccc(NC(=S)NC2CC2)cc1 | 1
COC(=O)c1sc(N)c(C(=O)OC)c1COC(=O)CNS(=O)(=O)c1cccc(C#N)c1 | 10
O=[N+]([O-])c1ccc(C(O)C23CN4CN(CN(C4)C2)C3)cc1 (configuration not stated) | 13
Cc1c(Cl)cccc1NC(=S)NCC1COc2ccccc2O1 (configuration not stated) | 6
Cc1ccc(NC(=O)C2C(=O)N(C)c3ccccc32)cc1 (configuration not stated) | -4
CCCCc1cc2c(cc1NC(=O)CN1CCCCC1)OCCO2 | 7
O=C(COc1ccccc1)NC(=S)Nc1ccc2c(c1)Cc1ccccc1-2 | 15

Next structures follow.
Structure | Biofilm kill mix
Cn1c(NC2CCCCC2)c(N=O)c(=O)n(C)c1=O | 11
O=Cc1c(N2CCN(c3ccccc3)CC2)nc2ccccn2c1=O | 15
Cc1ccc(NC(=O)CN2C(=O)N/C(=C/c3cc(C)n(-c4cccc(C(=O)O)c4)c3C)C2=O)cc1 | 5
Cc1ccc(C2C(C#N)=C(N)N(c3cccnc3)C3=C2C(=O)CCC3)c(C)c1 (configuration not stated) | 15
CC(C)(C)c1ccc(C(=O)NCCn2c(N)c(C#N)c3nc4ccccc4nc32)cc1 | 2
Cc1ccccc1Nc1nc(N)nc(CSc2nnnn2C)n1 | 22
CCC(C)(C)NC(=O)C(c1ccc(OC)cc1)N(CC1CCCO1)C(=O)CCC(=O)Nc1cc(C)on1 (configuration not stated) | 12
COC(=O)c1ccccc1NC(=S)N1CCN(C2CCCCC2)CC1 | 13

The results go on.
Structure | Biofilm kill mix
Cc1cc(Cl)ccc1OCC(=O)N1CCCN(C(=O)COc2ccc(Cl)cc2C)CC1 | -4
COCc1cc(C)nc(OCC(=O)N/N=C/c2ccccc2O)c1C#N | 0
Cc1ccccc1CSCC(=O)N1CCN(c2ccccc2)CC1 | 10
COc1ccc(C(CCN2CCN(c3ccccc3)CC2)c2c(O)cc(OC)cc2OC)cc1 (configuration not stated) | 13
Cc1cc(C)n(C(=O)CCCn2nc(C)c([N+](=O)[O-])c2C)n1 | 17
CCCCCCc1cc2cc(-c3nnc(-c4cc(OC)c(OC)c(OC)c4)o3)c(=O)oc2cc1O | 9
COc1ccc(C2Nc3ccccc3C(=O)N2Cc2ccco2)cc1CN1C(=O)c2ccccc2C1=O (configuration not stated) | 5
COc1cc(/C=N/Nc2nc(Nc3ccccc3)nc(-n3nc(C)cc3C)n2)cc(OC)c1OC | 13

Single entries from the results shown.
O=C(CCc1ccc(S(=O)(=O)NCCc2ccccc2)cc1)NCc1ccco1 in Biofilm kill mix → 10
COC(=O)c1ccc(NC(=S)NC2CC2)cc1 in Biofilm kill mix → 1

Next section:
Structure | Biofilm kill mix
COc1cccc(N2CCN(S(=O)(=O)c3cccc4cccnc34)CC2)c1 | 1
CCc1ccc2oc(C(=O)Nc3ccc(S(N)(=O)=O)cc3)c(C)c2c1 | 7
Cc1cc(Cl)ccc1OCC(O)CN1C(C)CCCC1C (configuration not stated) | -1
O=[N+]([O-])c1ccc(OCCN2CCCCCC2)cc1 | 14
CC(=O)N1N=C(c2ccc(Cl)cc2)OC12CCCC2 | 16
CCOC(=O)C(=CNc1cc(C(F)(F)F)ccc1N1CCOCC1)C(=O)OCC | 21
C/C(=N\NC(=O)c1csc(C)c1C)c1ccco1 | 6
Cc1cccc(-n2cc3c(=O)n(C)c(=O)n(C)c3c2)c1 | 7

Other results:
Structure | Biofilm kill mix
Cc1ccc(-c2cc(C(F)F)n3ncc(C(=O)N4CCc5ccccc5C4)c3n2)cc1 | 13
CCOC(=O)c1sc(NC(=O)c2ccccc2C(=O)O)c(C(=O)OCC)c1C | 24
S=c1[nH]nc(-c2ccccc2Cl)n1/N=C/C=C/c1ccco1 | 3
O=C(N/N=C/c1ccc(Cl)c([N+](=O)[O-])c1)c1cc(-c2ccc3c4c(cccc24)CC3)n[nH]1 | 16
O=C(N/N=C/c1ccco1)c1ccccc1OCc1ccccc1Cl | 19
COC(=O)C1=C(C(=O)OC)[C@@H]2Nc3ccccc3[C@@]23C[C@@H](C(=O)OC)N(C(C)=O)C3=N1 | 11
COc1ccc([N+](=O)[O-])cc1/C=N/NC(=O)CNC(=O)C(c1ccccc1)c1ccccc1 | 10
CC(C)(C)C1CCC(=NNC(=O)c2ccccc2-n2cccc2)CC1 (configuration not stated) | 12

Next part
Structure | Biofilm kill mix
Cc1c(/C=N/NC(N)=O)c2ccccn2c1C(=O)c1ccncc1 | 27
CN(c1ccccc1)S(=O)(=O)c1cccc(NC(=O)Nc2ccc(Cl)cc2C#N)c1 | 10
COc1ccc(C(=O)CCC(=O)Nc2cccnc2)cc1 | -2
Cn1c(SCC(=O)NCCc2ccccc2)nc2c([nH]c3ccccc32)c1=O | 1
CC(=O)N(c1cccc(Br)c1)c1nc(C)cc(C)c1C#N | 19
NNC(=O)/C=C/c1ccc(Cl)cc1Cl | 18
Cc1ccc(NC(=S)Nc2ccc3[nH]c(=O)[nH]c3c2)cc1 | 8
O=[N+]([O-])c1cnccc1Nc1ccc(Cl)cc1 | 33

Other compounds follow:
Structure | Biofilm kill mix
CC(c1ccccc1)C1CC(=O)N(Cc2ccccc2)C1=O (configuration not stated) | 22
O=[N+]([O-])c1cccc(/C=N/N2CCN(Cc3ccc(Cl)cc3)CC2)c1 | 21
CN(C)S(=O)(=O)c1cc(NC(=O)CSc2nn(-c3ccc(Cl)cc3)c(=S)s2)ccc1Cl | 6
COCCNc1nc(Cl)c(C#N)s1 | -2
CC(=O)c1c(C)c(C)c2n1CCn1c(C)ccc1-2 | 33
COc1ccc(N(C)S(=O)(=O)c2cccc(C(=O)Nc3nc4ccccc4[nH]3)c2)cc1 | 12
Nc1ccc2nc(-c3cccnc3)[nH]c2c1 | 6
CCOC(=O)CSc1nc2cc3c(cc2cc1C#N)OCCO3 | 14

More results
Structure | Biofilm kill mix
CN(C(=O)Nc1ccc(Cl)cc1)n1cnc2ccccc2c1=O | 17
Cc1ccc(S(=O)(=O)N(CC(=O)Nc2ccccc2C(=O)O)c2ccc(Cl)cc2)cc1 | 9
Cc1ccc(N=Nc2ccc(O)c3ncccc23)cc1C | 20
CCC(=O)NC(=S)Nc1cccc(NC(=O)c2ccccc2C)c1 | 18
COc1cc(C(CCN2CCCC2)c2c(OC)cc(OC)c3c(C)cc(=O)oc23)cc(OC)c1OC (configuration not stated) | 21
CCn1c(C)nc([N+](=O)[O-])c1C(=O)O | 12
CC(C)(C)c1ccc(Cn2cnc(-c3ccc([N+](=O)[O-])cc3)c2)cc1 | 11
Cc1ccc(NC(=O)CC(N)=S)cc1 | 0

Entries from the list above with a thiophene ring, fused or not (3):
Structure | Biofilm kill mix
COC(=O)c1sc(N)c(C(=O)OC)c1COC(=O)CNS(=O)(=O)c1cccc(C#N)c1 | 10
C/C(=N\NC(=O)c1csc(C)c1C)c1ccco1 | 6
CCOC(=O)c1sc(NC(=O)c2ccccc2C(=O)O)c(C(=O)OCC)c1C | 24

New compounds follow
Structure | Biofilm kill mix
CC1CCCCC12NC(=O)N(CC(=O)Nc1ccc(N3CCOCC3)cc1)C2=O (configuration not stated) | 9
CSCC(=O)N1CCCC(CO)(Cc2ccccc2C)C1 (configuration not stated) | -4
COCCc1ccc(OCC(O)CNC(C)C)cc1 (configuration not stated) | 2
Cc1ccc(S(=O)(=O)N(C)c2ccc(OCC(=O)Nc3cccc(-n4cnnn4)c3C)cc2)cc1 | 12
O=C(Nc1cc(Cl)ccc1Oc1ccccc1)c1ccc(F)cc1 | 1
CCC(C)N(C)C(=O)c1cc2ccccc2c(-c2ccccc2Cl)n1 (configuration not stated) | 5
COc1cc(OC)cc(C(=O)N[C@H](C(=O)NCc2cccs2)C(C)C)c1 | -15
CCOC(=O)c1c(-c2ccccc2)csc1NC(=O)/C(C#N)=C/c1ccc(O)c(OC)c1 | 11

Next section:
Structure | Biofilm kill mix
Cc1nn(-c2ccccc2)c(Cl)c1C(=O)Nc1ccc(N2CCOCC2)cc1 | 13
CN1/C(=C/C(=S)NC(=O)C2(C)CC2(Cl)Cl)C(C)(C)c2ccccc21 (configuration not stated) | 11
O=C(/C=C/c1ccccc1)NCC1(c2ccccc2)CCOCC1 | 10
CCOc1cc(/C=N/Nc2cccc(C(=O)O)c2)ccc1OC(=O)c1ccccc1 | 19
Cc1cc(Nc2cccc([N+](=O)[O-])c2)c2cccc(C)c2n1 | 23
O=C(O)c1ccccc1C(=O)NNc1ccc(Cl)cc1Cl | 0
CCOC(=O)c1c(NC(=S)NCc2ccccc2)sc2c1CCN(C(=O)OCC)C2 | 6
CSc1nc(C(=O)N2CCc3c([nH]c4ccccc34)C2c2ccccn2)cs1 (configuration not stated) | 26

(next part)
Structure | Biofilm kill mix
CC(C)c1nc(CNC(=O)c2cc(COc3c(F)cccc3F)on2)cs1 | 14
COC(=O)c1cc(Nc2cc(C)c3ccc(O)cc3n2)cc(C(=O)OC)c1 | 23
O=C(Cn1cnc([N+](=O)[O-])n1)N/N=C/c1cc(Cl)ccc1O | 2
COc1ccc(NC(=O)COC(=O)CCNS(=O)(=O)c2ccccc2)cc1OC | 3
N#C/C(=C\c1ccc(-c2ccccc2[N+](=O)[O-])o1)C(=O)N1CCOCC1 | 20
O=C(COC(=O)c1cc[n+]([O-])cc1)Nc1ccc([N+](=O)[O-])cc1 | 9
CCCCNC(=O)C1C2C=CC(C2)C1C(=O)O (configuration not stated) | 16
O=C1CCCC2(O)C1C(c1cccc(Br)c1)NC(=O)N2Cc1ccccc1 (configuration not stated) | 12

Going on with the list:
Structure | Biofilm kill mix
COc1ccccc1N1C(=O)C2C(C(=O)c3ccccc3)=NN(c3ccc(Br)cc3)C2C1=O (configuration not stated) | 15
COc1cc2c(cc1OC)C1(C)N(CC2)C(C(C)=O)=NN1c1ccc(Cl)cc1 (configuration not stated) | 8
CC(C)(C)NC(=O)C(c1ccncc1)N(Cc1cccs1)C(=O)Cn1nnc(-c2ccc(F)cc2)n1 (configuration not stated) | 7
O=C(NN1CCOCC1)NC12CC3CC(CC(C3)C1)C2 | 16
Cc1nn(-c2ccccc2)c(C)c1C(=O)NCc1ccc(F)cc1 | 5
O=C(O)CCC(=O)Nc1sc2c(c1C(=O)Nc1cccc3ccccc13)CCCCC2 | 11

From PubChem

The list is partial, so the mix of outcomes need not match the whole.
